Assay outcomes: PubChem, Southern Research Institute
Mtb growth = Mycobacterium tuberculosis H37Rv growth inhibition, cell based, confirmatory dose response (AID 1949); most inactive calls were filed without a number and no value below 0 was filed; one-dose inhibition, % at 10 µg/mL; IC50 in µg/mL for titrated hits; 100,000 tested, 1.6% active;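 active means confirmed in a dose series; inconclusive means about 50% or more but not retested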;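 further: bacteria grown 7 days with compound before Alamar blue readout; 0% = untreated bacteria and 100% = reference antibiotic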
* hit, by the source's call; i = inactive; ? = inconclusive.

A first look, three compounds:
structure	Mtb growth
COC(=O)C1=C(C)Nc2ncnn2C1c1ccc(OCc2cccc(C)c2)cc1 (stereo unspecified)	i
COc1ccc(C(=O)Nc2sc3c(c2C(=O)NCc2ccco2)CCCC3)cc1OC	i
c1ccc(-c2nc(N3CCOCC3)c3ccccc3n2)cc1	i

Results, from the start:
structure	Mtb growth
COC(=O)C1=C(C)Nc2ncnn2C1c1ccc(OCc2cccc(C)c2)cc1 (stereo unspecified)	i
COc1ccc(C(=O)Nc2sc3c(c2C(=O)NCc2ccco2)CCCC3)cc1OC	i
c1ccc(-c2nc(N3CCOCC3)c3ccccc3n2)cc1	i
O=C(COc1ccc(S(=O)(=O)NC2CCCCC2)cc1Cl)NCc1cccnc1	3%
c1ccc2[nH]c(-c3cncs3)nc2c1	i
O=C(CSc1nnnn1-c1ccc2c(c1)OCO2)Nc1ccc(Oc2ccccc2)cc1	i
O=[N+]([O-])c1ccc(COc2ccc(CO)cc2I)cc1	5%
CC(CC(=O)O)CC(=O)NNc1ncc(Cl)cc1Cl (stereo unspecified)	0%
CC(=O)c1c(C)cc(C)c(CSc2ccccn2)c1C	9%
O=[N+]([O-])c1cccc(NC(=S)Nc2ccc(Cl)c(Cl)c2)c1	0.3µg/mL*
O=C(c1cccs1)N1CCN(C(=O)c2ccccc2F)CC1	i
CC(C)COc1ccc(CC(C#N)C(=O)O)cc1Cl (stereo unspecified)	i
CC(CC(=O)Nc1ccccc1C(=O)N1CCOCC1)c1ccccc1 (stereo unspecified)	0%
Cc1cc(C(=O)Nc2ccc(CC(=O)O)cc2)c(C)o1	4%
N#Cc1ccc(C(=O)Nc2ccc(Oc3ccc(Cl)cc3)cc2)c(F)c1	i
CCCCOc1ccc(NC(=O)CCSc2nccn2C)cc1	i
CC(C)(C)c1cc(CN2CCCCC2)c(C(=O)O)o1	i
O=C(C(=O)c1cccc(Cl)c1)c1ccccc1	i
COc1cc(C=O)cc(Br)c1OCc1cccc(F)c1	i
Cn1nc(CC(=O)Nc2ccc3c(c2)oc2ccccc23)c2ccccc2c1=O	2%
COc1ccc(N(CC(=O)N2CCC(C(N)=O)CC2)S(=O)(=O)c2ccccc2)cc1Cl	i
O=C(COc1ccccc1Cl)N1CCN(c2ccccn2)CC1	3%
O=C(c1ccc(COc2ccc(Br)cc2)cc1)N1CCOCC1	i
C=CCn1c(SCC(=O)Nc2ccccc2[N+](=O)[O-])nc2sc(C)c(C)c2c1=O	i
CCCOc1ccc(CC(=O)Nc2ccc(C)cc2C)cc1OC	3%
CC(=O)Nc1cccc(OCC(=O)Nc2cccc(Cl)c2Cl)c1	i
Cc1cc(C)c(NC(=O)c2ccc(Cl)cc2Cl)c(Cl)c1	?
Cc1ccc([N+](=O)[O-])cc1S(=O)(=O)NCCOc1ccccc1Cl	i
CCOC(=O)c1ccc(NC(=O)Cn2cc(C#N)c3ccccc32)cc1	i
COC(=O)CC(=O)CSc1nc2c(cc1C#N)CCCCC2	3%
O=C(CSc1ccc(F)cc1)NCc1ccccc1	1%
O=C1c2ccccc2C(=O)N1c1nnc(Sc2ccc([N+](=O)[O-])c3cccnc23)s1	i
O=S(=O)(c1ccc(Cl)cc1)c1cccc(S(=O)(=O)N2CCCC2)c1	i
C#CCOc1c(Br)cc(CNC(CC)CO)cc1OC (stereo unspecified)	i
CCCCCCCSc1nnc2c(n1)[nH]c1ccccc12	0%
Cc1cc(OCC(=O)Nc2ccccc2N2CCCC2)ccc1Cl	1%
O=S(=O)(Nc1nnc(C2CCCCC2)s1)c1ccccc1	i
NS(=O)(=O)c1ccc(CCNCc2ccccc2F)cc1	1%
COc1ccc([N+](=O)[O-])cc1NC(=O)c1cc(OC)c(OC)c(OC)c1Br	i
Oc1ccc(CNc2ccccc2O)cc1	1µg/mL*
COC(=O)c1ccccc1NC(=O)c1ccc(OC(C)C)cc1	i
CCOC(=O)C1(C)C=C(Nc2ccc(OCC)cc2)C(=O)N1c1ccc(OCC)cc1 (stereo unspecified)	i
Cc1cc(NC(=S)NCc2ccc(Cl)cc2)nn1Cc1ccc(Cl)cc1	5%
O=S(=O)(Cc1ccccc1Cl)Nc1ccc(F)c(C(F)(F)F)c1	i
COc1ccc(OCC(=O)Nc2ccc3oc(-c4ccc(C)c(C)c4)nc3c2)cc1	1%
CC(=O)c1cccc(NC(=S)Nc2cc(Cl)c(Cl)cc2Cl)c1	i
CC(C)Sc1nc2c(c(=O)[nH]1)C(c1cccc([N+](=O)[O-])c1)C1=C(CCCC1=O)N2 (stereo unspecified)	i
O=C(NCc1ccc(Cl)c(Cl)c1)c1ccncc1	i
CC(C)(C)c1ccc(S(=O)(=O)NCc2ccc(C(=O)N3CCCC3)cc2)cc1	i
CCOC(=O)c1sc(NC(=O)C2CCCO2)c(C(=O)OC)c1C (stereo unspecified)	i
Cc1cccc(-c2noc(-c3ccccc3C)n2)c1	6%
COc1cc(OC)c(NC(=S)Nc2cccc(C(C)=O)c2)cc1Cl	i
COc1ccc(CCNC(=O)Nc2ccc(Br)cc2Cl)cc1OC	i
O=C(CCS(=O)(=O)Cc1ccccc1)NCCc1ccccc1	i
CCCCC12CNCC(C)(CNC1)C2=O	i
COc1ccc2nc(/C(C#N)=C\c3ccco3)[nH]c2c1	3%
COc1ccc(S(=O)(=O)NC(C)C(=O)NC2CC2)cc1C (stereo unspecified)	i
O=C(Nc1nccs1)C1CCCN1S(=O)(=O)c1ccc(F)cc1 (stereo unspecified)	i
COc1ccc(OC)c(S(=O)(=O)Nc2ccccc2Br)c1	i
c1ccc2c3nnc4n(c-3nc2c1)CCCS4	i

Carrying on.
structure	Mtb growth
CC1(C)CC(CCC(=O)NC(=S)Nc2ccccc2Cl)C(=O)O1 (stereo unspecified)	i
O=C(c1cc(Br)ccc1Cl)N1CCCc2ccccc21	5%
O=S(=O)(Nc1ccc(O)c(NS(=O)(=O)c2ccccc2)c1)c1ccccc1	i
O=C(COc1ccccc1)Nc1nc(-c2ccc(S(=O)(=O)N3CCCC3)cc2)cs1	i
COc1ccc(S(=O)(=O)Nc2ccc(Cl)cn2)cc1OC	i
Cc1ccc(OCC(=O)Nc2ccc3oc(-c4ccccc4C)nc3c2)c(C)c1	i
CS(=O)(=O)N(CC(=O)NCCSCc1ccccc1)c1cc(C(F)(F)F)ccc1Cl	i
COc1cc2c(cc1OC)C1(Nc3c-2c(C)nn3-c2ccccc2)C(=O)Nc2ccccc21 (stereo unspecified)	1%
C=CCn1cnc2sc(-c3ccccc3)cc2c1=O	i
COC(=O)Cn1c(C)c(C#N)c2ccccc21	7%
NC(=O)CN(Cc1ccc(Cl)c(Cl)c1)S(=O)(=O)c1ccc(Br)cc1	i
COc1ccc(N(CC(O)CN2CCOCC2)S(=O)(=O)c2ccccc2)cc1 (stereo unspecified)	i
COc1cc2ccccc2cc1C(=O)Nc1nc2c(Cl)c(Cl)ccc2s1	i
COc1ccc(/C=C(/C#N)c2ccccc2F)c(OC)c1	25%
Cc1ccc(S(=O)(=O)NCc2ccc3c(c2)OCO3)cc1[N+](=O)[O-]	i
CCCCc1c(C)nc(SCCC)[nH]c1=O	2%
O=C(CSc1nnnn1Cc1ccccc1)N1CCN(c2ccccc2)CC1	1%
Cc1ccc(NC(=O)c2cn(-c3ccccc3)nc2-c2ccc3c(c2)OCCO3)cc1[N+](=O)[O-]	2%
Cc1ccccc1NC(=O)CSc1nc(O)cc(=O)[nH]1	i
CCOC(=O)c1cnc(SCc2cccc([N+](=O)[O-])c2)nc1N	i
COC(=O)c1ccc(Cl)c(NC(=O)CN2CCOCC2)c1	i
NS(=O)(=O)c1ccc2oc3ccccc3c2c1	2%
O=C(NCCSC1CCCCC1)c1ccc(F)cc1	i
Cc1ccccc1NS(=O)(=O)c1ccc(Cl)c(C(F)(F)F)c1	2%
CCN(C(=O)COc1ccccc1Cl)c1ccccc1	i
Cc1cc(C)cc(OCC(=O)Nc2ccccc2C(=O)NCc2ccccc2)c1	i
O=C(Nc1c(C(=O)Nc2ccc(Br)cc2)cnn1-c1ccccc1)c1cccs1	i
CC1=C(C(=O)OCCc2ccccc2)C(c2ccccc2OC(C)C)C2=C(CCCC2=O)N1 (stereo unspecified)	i
CCn1c(SCC(=O)Nc2ccc(C)c(C)c2)nnc1-c1ccc(Cl)cc1	i
Cc1ccc(S(=O)(=O)N(C)CCCC(=O)Nc2ccc(Br)cc2F)cc1	i

A second format for 4 compounds above.
COc1ccc(/C=C(/C#N)c2ccccc2F)c(OC)c1
  Mtb growth: 25%

Cc1ccc(S(=O)(=O)NCc2ccc3c(c2)OCO3)cc1[N+](=O)[O-]
  Mtb growth: i

CCCCc1c(C)nc(SCCC)[nH]c1=O
  Mtb growth: 2%

O=C(CSc1nnnn1Cc1ccccc1)N1CCN(c2ccccc2)CC1
  Mtb growth: 1%

3 records picked at random from those above, as already listed:
structure	Mtb growth
CCOC(=O)c1cnc(SCc2cccc([N+](=O)[O-])c2)nc1N	i
c1ccc2[nH]c(-c3cncs3)nc2c1	i
COC(=O)CC(=O)CSc1nc2c(cc1C#N)CCCCC2	3%

(listing goes on)
| SMILES | Mtb growth |
| --- | --- |
| Cc1c(Cl)c(C(F)(F)F)nn1CCCNC(=S)Nc1ccc(S(N)(=O)=O)cc1 | i |
| O=C(Nc1ccc(I)cc1Cl)c1ccc(N2CCCC2)c([N+](=O)[O-])c1 | 13% |
| O=C(CSc1nc2ccccc2s1)Nc1ncc(Cc2ccc(Br)cc2)s1 | i |
| O=Cc1ccc(OCC(=O)N2CCCC2)cc1 | i |
| Cc1cc(C=O)c(C)n1C1CCCCC1 | 1% |
| Clc1cc(Cl)c2c(c1)NC(c1cccnc1)C1CC=CC21 (stereo unspecified) | 22µg/mL* |
| COc1ccc(CNCCC2(c3ccccc3)CCOC(C)(C)C2)cc1OC (stereo unspecified) | i |
| Cn1c(=O)oc2cc(S(=O)(=O)N3CCOCC3)ccc21 | i |
| Cc1ccc([N+](=O)[O-])cc1S(=O)(=O)Nc1cc(SCC(=O)O)c(O)c2ccccc12 | i |
| C=CCn1c(Sc2nnc(C)s2)nc2c1c(=O)[nH]c(=O)n2C | i |
| CN1C(=O)CC(N2CCC(c3nc4ccccc4s3)CC2)C1=O (stereo unspecified) | i |
| Cc1ccc(NC(=O)CSc2nnc(/N=C/N(C)C)s2)cc1 | i |
| COc1ccc(NC(=O)c2ccc(C)o2)cc1 | i |
| CCOc1ccc(S(=O)(=O)N2CCCCC2C)c2ccccc12 (stereo unspecified) | i |
| CCOC(=O)c1cnc2ccc(Cl)cc2c1N1CCN(C)CC1 | i |
| COC(=O)c1c(NC(=S)Nc2cnccn2)sc2c1CCC(C)C2 (stereo unspecified) | i |
| Oc1ccc(Nc2nnc(-c3ccccc3)c3ccccc23)cc1 | 2% |
| COc1ccc2c(Cl)c(C(=O)Oc3ccccc3[N+](=O)[O-])sc2c1 | i |
| O=C(Nc1cccc(NC(=O)c2ccc(Cl)cc2Cl)c1)c1ccc2c(c1)OCO2 | i |
| Cc1nnc(NC(=O)COc2c(C)ccc(C)c2C)s1 | 3% |
| COc1ccc(C(=O)NCCCNC(=O)c2ccc(OC)c(OC)c2)cc1OC | i |
| CCCOc1ccccc1OCCCCN1CCN(C)CC1 | i |
| CC(C)(CO)NC(=O)c1cccc(Cl)c1 | i |
| COC(=O)c1cc(NS(=O)(=O)c2ccc(OC)c(Cl)c2Cl)ccc1Cl | i |
| COc1ccc(Cn2ccnc2)cc1Br | 2% |
| CCc1nc2ccc(I)cc2c(=O)n1-c1ccc(Cl)cc1 | i |
| Cc1cccc(C)c1N1CCN(S(=O)(=O)c2ccc(C(C)(C)C)cc2)CC1 | 3% |
| COc1ccc(OC)c(NC(=O)COc2ccc(-c3ccc(C)cc3)cc2)c1 | i |
| CC(=O)c1cccc(NC(=O)c2ccc(C(C)(C)C)cc2)c1 | i |
| O=C(Nc1c(-c2cccs2)nc2ccc(Cl)cn12)c1ccc(Cl)cc1 | 2% |
| COc1ccc(CCn2c(C)c(C(C)=O)c(C(C)=O)c2C)cc1OC | i |
| CCCn1nnc(NC(=O)COc2ccc(Cl)c(C)c2)n1 | ? |
| CC(Sc1ccc(Cl)cc1)C(=O)NCc1cccnc1 (stereo unspecified) | i |
| N#Cc1c(C(F)(F)F)cc(-c2cccs2)nc1SCc1ccc(C(=O)O)cc1 | i |
| COc1ccc(C)cc1S(=O)(=O)N1CCCC(C(=O)Nc2ccccc2C(F)(F)F)C1 (stereo unspecified) | i |
| CCOC(=O)C1=CN(Cc2ccc(OC)cc2)C=C(C(=O)OCC)C1c1ccc(C)c([N+](=O)[O-])c1 | 3% |
| CCOC(=O)c1c(NC(=O)CCC(=O)O)sc(C)c1-c1ccc(F)cc1 | i |
| O=C(CC12CC3CC(CC(C3)C1)C2)NCc1ccncc1 | i |
| CC12C(=O)N(NC(=O)c3ccncc3)C(=O)C1C1C=CC2C1 (stereo unspecified) | i |
| Cc1ccccc1Oc1ccc(S(=O)(=O)N2CCOCC2)cc1 | 0% |
| COc1ccc(-c2c(C)oc3cc(OC(=O)c4cccs4)ccc3c2=O)cc1 | 15% |
| COc1cc(NC(=S)N2CCN(c3cccc(OC)c3)CC2)cc(OC)c1 | i |
| CCn1c(SCc2ccccc2C#N)nnc1-c1ccccc1 | i |
| Cn1nnc2cc(C(=O)N(CCO)c3ccccc3)ccc21 | i |
| CCCOc1ccc(C2C(C(=O)c3ccco3)=C(O)C(=O)N2CCN(C)C)cc1OC (stereo unspecified) | i |
| COc1ccc(C(=O)N2CCN(Cc3ccc(SC)cc3)CC2)cc1OC | i |

An excerpt. The share of hits here may be higher or lower than overall.
